Screening data from PubChem BioAssay.
ClpP mod = qHTS Assay for Activators of ClpP. AID 651965, 2013. ATP-dependent Clp protease proteolytic subunit (Bacillus subtilis (strain 168)), P80244. purified B. subtilis ClpP, FRET peptide cleavage, 20 min. Potency, µM (highest dose often 57.5 µM), without a hit: at the top dose activity change, negative = active. hit rate 1.9% among 340,000; active = well fitted falling curve with a large enough effect; inconclusive = small, poorly fitted or top-dose-only effect; inactive = no such curve, though single readings can be large or run the other way; note: potency is the fitted concentration of half-maximal effect; the source files actives as falling curves though it sought activators and does not explain the sign; nearly all actives have a fitted effect of over 65% in size; many hits overshoot -100%
Target sequence (P80244 whole entry, looked up): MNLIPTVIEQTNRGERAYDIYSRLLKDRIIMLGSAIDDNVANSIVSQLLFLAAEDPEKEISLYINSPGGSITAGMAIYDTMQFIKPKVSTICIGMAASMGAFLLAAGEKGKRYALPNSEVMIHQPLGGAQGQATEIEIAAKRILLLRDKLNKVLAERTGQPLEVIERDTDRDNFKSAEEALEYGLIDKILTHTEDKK
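Buffer: 100 mM Tris/HCl pH8, 100 mM KCl, 0.05% low protease BSA, 2.5% glycerol, 0.01% Tween-20. ClpP 10 microg/mL final; 20 min RT; delta FRET normalized to ADEP and DMSO controls.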
CtBP-E1A blk = CtBP/E1A binding inhibition. AlphaScreen GST-E1A/His-CtBP binding, 1536-well; hits give low values; control for the full effect not named in the record. activity change, % (concentration not given with the values). hit rate 0.49% among 340,000. AID 651724; in the data active means activity change below about -65%; inconclusive means about -30% to -65%; inactive means above about -30%; note: % is set by controls: 0 for no effect and ±100 for the full control effect
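Homogeneous bead-based format: GST-tagged E1A captured on glutathione donor beads, His-tagged CtBP on nickel acceptor beads; compounds precede bead addition by 2 h at 37 °C.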
TRPV1 potentiator = human TRPV1 potentiation. Q8NER1. TRPV1-expressing cells, Fluo-8 calcium influx, capsaicin EC20 potentiation; host cell line not named in the record; control for the full effect not named in the record. potentiation, % at 8.33 µM. hit rate 0.02% among 320,000. AID 540277; active means potentiation above 80%; inconclusive means 30% to 80%; inactive means below 30%; note: 0% is about no effect
Target sequence (Q8NER1 whole entry, looked up): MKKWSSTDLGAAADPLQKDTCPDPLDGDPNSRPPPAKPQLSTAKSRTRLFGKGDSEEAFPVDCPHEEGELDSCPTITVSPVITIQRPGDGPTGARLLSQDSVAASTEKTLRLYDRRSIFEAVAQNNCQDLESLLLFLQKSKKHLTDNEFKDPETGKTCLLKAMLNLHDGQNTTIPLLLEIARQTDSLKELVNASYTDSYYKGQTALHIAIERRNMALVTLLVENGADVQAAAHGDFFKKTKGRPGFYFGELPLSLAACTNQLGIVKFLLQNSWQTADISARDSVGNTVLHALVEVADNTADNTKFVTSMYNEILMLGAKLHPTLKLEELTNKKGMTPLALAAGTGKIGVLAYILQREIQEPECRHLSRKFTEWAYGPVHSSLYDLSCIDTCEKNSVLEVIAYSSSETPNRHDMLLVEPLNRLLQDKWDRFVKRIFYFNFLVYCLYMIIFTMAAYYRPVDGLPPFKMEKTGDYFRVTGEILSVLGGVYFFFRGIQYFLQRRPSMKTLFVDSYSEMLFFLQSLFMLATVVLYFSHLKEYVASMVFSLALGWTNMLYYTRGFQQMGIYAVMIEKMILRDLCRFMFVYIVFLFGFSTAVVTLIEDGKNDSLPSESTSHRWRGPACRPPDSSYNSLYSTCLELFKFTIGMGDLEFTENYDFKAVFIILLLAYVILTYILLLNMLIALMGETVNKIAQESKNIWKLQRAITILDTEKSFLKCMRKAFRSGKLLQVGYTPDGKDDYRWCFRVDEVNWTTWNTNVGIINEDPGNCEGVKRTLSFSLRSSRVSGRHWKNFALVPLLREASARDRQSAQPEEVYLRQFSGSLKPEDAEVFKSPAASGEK
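Cells expressing TRPV1 were dye-loaded with Fluo-8 and read kinetically: 10 s baseline, 3 min after compound (agonist portion), then 2 min after EC20 capsaicin (allosteric enhancer portion). Calcium-bound dye fluorescence at 480/520 nm.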
gsp agonist = agonists of gsp mutant (McCune-Albright syndrome). AID 624287. gsp mutant cells, cAMP HTRF, 30 min; control for the full effect not named in the record. hit rate 0.13% among 340,000. Potency, µM (top dose mostly 76.9 µM), without a hit: at the highest dose activation (cAMP increase), hits mostly activators; active = well fitted activation curve with a large enough effect; inconclusive = small, poorly fitted or top-dose-only effect, or another doubt; inactive = no such curve, though single readings can be large or run the other way; cell line not stated here;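 note: phosphodiesterase inhibitor Ro 20-1724 added with compounds to block cAMP breakdown; potency is the fitted concentration of half-maximal effect; nearly all actives have a fitted effect of over 60% in size; about a fifth of the inactives were tested at one dose only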
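Cells in DMEM/10% FBS with G418 were pretreated with compounds in DMSO plus […] (300 uM stock) for 30 min at 37C. cAMP was measured by HTRF (cAMP-d2 plus anti-cAMP antibody-K) after 30 min at room temperature.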
gsp antagonist = antagonizes gsp, the McCune-Albright syndrome mutation; gsp-mutant cells, cAMP HTRF, 30 min; control for the full effect not named in the record; Potency, µM (highest dose often 76.9 µM), without a hit: top-dose activity change, negative = inhibition, hits mostly inhibitors; hit rate 0.4% among 340,000; AID 624288; active = falling curve of any shape with a large fitted effect; inconclusive = falling curve, mostly with a smaller effect; inactive = flat or rising curve; cell line not stated here;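 note: intracellular cAMP measured with PDE inhibitor Ro 20-1724 present during compound exposure; potency is the fitted concentration of half-maximal effect; % is set by controls: 0 for no effect and ±100 for the full control effect; nearly all actives have a fitted effect of over 65% in size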
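HTRF cAMP measurement after 30 min RT detection following 30 min, 37C compound treatment alongside […] (added as 300 uM solution) in G418-selected cells seeded at 2000/well and grown 16–24 h.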
Menin MLL FP FL = displaces fluorescein MLL peptide from human menin | Fluorescence polarization, fluorescein-MLL peptide displacement from menin | FP activity change, % at 61.4 µM | 290,000 tested, under 10 active | AID 1766; inconclusive = falling polarisation curve, or a change in total fluorescence; inactive = total fluorescence flat and polarisation flat or rising; no compound was filed as active; the % refers to the polarisation; negative = inhibition;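 note: % of control where 0% means no effect; inhibitors lower the polarisation; unlabelled MLL peptide was the positive control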
Sfp inh = blocks B. subtilis Sfp PPTase activity; Biochemical Sfp PPTase activity, qHTS; Potency, µM, inactives show max response, negative = inhibition, most hits filed as inhibitors; hit rate 3.5% among 310,000; active = well fitted inhibition curve with a large enough effect; inconclusive = small, poorly fitted or top-dose-only effect, or another doubt; inactive = no such curve, though single readings can be large or run the other way;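 note: the enzyme is Sfp with the accession as filed and its product quenches rhodamine fluorescence; potency is the fitted concentration of half-maximal effect; 0% = enzyme reaction without inhibitor and -100% = no enzyme wells; top concentration of the series not given in the record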
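Fluorescence-quenching assay: 15 nM Sfp-PPTase preincubated 15 min at room temperature with compound, then 5 uM rhodamine-CoA and 12.5 uM BHQ-2-labelled YbbR peptide added. Fluorescence (ex 525/em 598 nm) read at start and after 30 min; difference gives rate.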
Starred values were filed as active, the others as inactive; ? = inconclusive; · = no result given; & = joins results of further samples; [ ] = dose if it differs, or a comment.

SMILES	ClpP mod	CtBP-E1A blk	TRPV1 potentiator	gsp agonist	gsp antagonist	Menin MLL FP FL	Sfp inh
COc1ccc(NC(=O)c2cc([N+](=O)[O-])ccc2NC(=O)CNCc2ccccn2)c(OC)c1	-2.9%	-16.6	10.2	0.3%[15.4 µM]	-14.0%	?	44.7µM*
CCC(C)C(=O)N1CCc2cc(-c3csc(N)n3)ccc21 (centres undefined)	-0.9%	-2.6	-9.4	4.5%	-15.8%	4.2	-17.6%
O=C(/C=C/c1ccc2c(c1)OCO2)Nc1ccc(Cl)cn1	·	0.0	2.3	0.5%[15.4 µM]	8.4%	-1.2	7.6%
CCN1C(=O)[C@H]2[C@@H](c3ccc(-c4ccccc4)cc3)N3CCCC[C@@]3(C(=O)OC)[C@H]2C1=O	-5.3%	5.2	24.3	·	-10.6%	·	·
Cc1cc(-c2ccc(C)c(S(=O)(=O)NCCCN(Cc3ccccc3)C(C)C)c2)on1	-1.7%	·	-17.3	-32.1%[inhibitor]	2.3%	·	10.2%
O=C(C1=C[C@@H](c2coc3ccccc3c2=O)C[C@@H](OCc2ccc(CO)cc2)O1)N1CCCCCCC1	-0.8%	-4.8	0.1	·	?	-0.6	-7.0%
Fc1ccc(Nc2c3c(nc4ccccc24)CCC3)cc1	-1.6%&0.2%	1.6	-20.4	-95.1%[inhibitor]	-10.1%	-6.0	8.5%
O=C(c1ccc(Cl)cc1)c1cn[nH]c1-c1ccccc1O	-0.3%	-0.7	-5.0	-24.8%	-31.4%	-6.0	11.9%
O=c1c(Cc2ccccc2)c(O)nc2n1CCCS2	0.1%	1.6	3.0	-18.0%	-9.6%	1.5	16.5%
CCC(=O)c1c[nH]c(C(=O)N2CCOCC2)c1	0.4%	3.0	-1.5	11.2%	8.5%	0.9	-0.8%
NC(=O)CC(NC(=O)Cc1cccc2ccccc12)c1ccc(NCC2CC2)c([N+](=O)[O-])c1 (centres undefined)	0.7%	·	-1.6	12.8%	4.3%	-2.9	?
CCOc1ccc(-c2nnc(SCc3nnc(-c4ccccc4)o3)n2-c2ccccc2F)cc1	-2.3%	5.4	4.4	-29.3%	-0.3%[15.4 µM]	0.4	-22.9%
CC1CN(C(=O)COC(=O)c2cnc(Cl)c(Cl)c2)CC(C)O1 (centres undefined)	31.6µM*	-1.2	·	0.6%	-1.7%	·	·
COc1ccc(NC(=S)Nc2ccccc2C(F)(F)F)cc1	·	9.8	10.5	-28.4%	9.0%	-2.6	-18.9%
CCOC(=O)c1ccc2c(c1)nc(SCC(=O)N1CCCCC1)n2CC	-16.9%	-21.5	6.4	-58.0%[inhibitor]	-7.1%	-2.8	9.8%
Cc1cccc(OCC(O)CN2C(C)(C)CC(O)CC2(C)C)c1 (centres undefined)	-1.0%	2.7	14.6	-5.0%	12.6%	2.0	1.3%
CCc1sc(C(=O)N2CCc3cc(OC)c(OC)cc3C2CC(=O)O)cc1C (centres undefined)	-2.8%	·	11.2	-6.0%	1.7%	·	·
O=C(CN1CCN(S(=O)(=O)c2ccc(F)cc2)CC1)Nc1ccnn1C1CCCC1	-6.5%	-16.6	-2.7	-40.1%[inhibitor]	1.5%	·	·
Cc1ccc(-c2noc(CCCN3C(=O)c4ccccc4C3=O)n2)cc1	-1.4%	-6.3	7.7	16.4%	-11.7%	-1.0	-0.8%
Cc1ccc(C(=O)OCC(=O)Nc2ccc3c(c2)OCCO3)cc1C	-0.9%	5.1	-20.5	0.5%	4.2%	·	·
CC1CCN(C(=O)CCc2nnc3ccc(NCCCN4CCCC4=O)nn23)CC1	·	-0.1	4.1	?	19.5%	-9.0	10.0%
COc1ccc(CN2C(=NC(=O)C3CCCO3)SC3CS(=O)(=O)CC32)cc1 (centres undefined)	0.6%	5.4	10.4	0.3%	2.5%	1.0	13.4%
Cn1c(=O)cc(OCC(=O)Nc2ccccn2)c2ccccc21	-3.0%	-5.6	19.2	8.2%	8.2%	6.0	17.8%
CCN(CC)c1ccc(N2C(=O)/C(=C\c3cccs3)SC2=S)cc1	9.2%	-8.1	5.7	-27.1%	5.1%	0.9	17.3%
c1ccc(CN2CCC3(CCCc4ccccc43)CC2)cc1	0.0%	-8.0	-15.6	·	-8.7%	-2.7	·
CCn1c(NCc2cc(OC)ccc2OC)nc2ccccc21	-1.3%	8.2	6.1	3.2%	6.5%	0.8	-4.5%
COc1ccc(Cl)cc1-n1c(C)cc(C(=O)OCC(=O)N2CC(=O)Nc3ccccc32)c1C	-3.2%	-20.5	-1.6	-29.7%	-21.1%	1.5	-4.6%
N=C(N)SCc1ccc(O)c([N+](=O)[O-])c1	-0.4%	0.7	7.5	-24.1%	21.7%	-0.2	79.4µM*
COc1ccc(OC)c2sc(NC(=O)c3ccc(S(=O)(=O)N(C)C)cc3)nc12	2.2%	4.2	26.0	-20.6%	-4.0%	1.7	18.6%
CCC12CN3CCN(CC(C3)/C1=N\NC(=O)c1ccc(Cl)cc1)C2	·	·	-20.3	19.3%[15.4 µM]	-0.3%	-0.1	9.0%
CCS(=O)(=O)N1CCN(S(=O)(=O)c2ccc(Cl)s2)CC1	1.1%	2.3	-1.5	?	5.6%	·	-5.6%
CCCCS(=O)(=O)N1CCCC(C(=O)Oc2ccccc2OC)C1 (centres undefined)	-1.0%	-1.6	12.9	5.7%[15.4 µM]	-12.3%	0.9	18.6%
CCCCNC(=O)N(O)C1N(/N=C/c2ccccc2O)C(=S)SC1(C)C (centres undefined)	·	-14.8	12.4	1.6%	-7.4%	-10.2	?
CCCCNC(=O)N1CCN(Cc2cccc(F)c2)CC1	·	-4.1	0.1	7.3%	3.5%	-1.5	13.2%
COc1ccccc1-n1cnnc1SCC(=O)Nc1nc(C)c(Cl)cc1Cl	-0.2%	5.8	1.9	4.5%	1.1%	2.0	9.8%
COCCN(C(=O)COC(=O)c1ccc(Br)o1)c1c(N)n(Cc2ccccc2)c(=O)[nH]c1=O	-3.2%	-18.5	·	-39.8%[inhibitor]	·	·	·
c1cnc2c(c1)ccc1cccnc12	0.3%&0.8%	-75.8*	19.3&-5.2	20.5%[15.4 µM]	3.3%	4.1&-0.2&-3.2	2.51µM*
Cc1ccc(S(=O)(=O)Oc2ccc(C)cc2/C=N/N=C2\NC(=O)C(C)S2)cc1 (centres undefined)	0.6%	-0.4	3.6	-2.4%	-14.4%	3.4	9.1%
O=C(CS(=O)(=O)c1ccccc1)Nc1nnc(-c2cccs2)o1	-11.2%	7.2	8.8	-17.9%	4.0%	·	·
O=C(CN1C(=O)NC2(CCOc3ccccc32)C1=O)c1ccc(Cl)s1 (centres undefined)	0.1%	0.8	0.8	26.1%	3.3%	·	·
COc1ccc(N2CCN(Cc3cc(=O)c(OCC(=O)Nc4ccccc4)co3)CC2)cc1	-6.9%	4.1	0.8	-2.1%[15.4 µM]	9.0%	·	·
CCC(C)NC(=O)CN(c1ccc2c(c1)OCO2)S(=O)(=O)c1c(C)n[nH]c1C (centres undefined)	-2.7%	7.2	·	19.7%	3.7%	3.0	12.8%
Cc1ccc(/C=N/NC(=S)NC2CCS(=O)(=O)C2)cc1 (centres undefined)	0.3%	1.6	-13.7	-26.4%	-1.8%	4.4	?
CC1CCC2(CC1)NC(=O)N(CC(=O)N1CCN(C(=O)c3cccs3)CC1)C2=O (centres undefined)	-2.6%	-0.5	2.3	-26.8%	5.3%	·	·
O=C(CCN1C(=O)/C(=C/c2ccc(F)cc2)SC1=S)Nc1cc([N+](=O)[O-])ccc1O	-0.9%	0.8	23.9	11.8%	?	1.2	-17.1%
COc1ccc(/C=N/NC(=O)c2ccco2)cc1COc1ccc(F)cc1	-27.3%	-3.3	2.5	16.3%	?	-0.8	-17.9%
O=C(NCc1ccc(F)cc1)c1ccc(S(=O)(=O)Nc2cccc(C(F)(F)F)c2)cc1	14.1µM*	-21.8	21.2	-33.2%[inhibitor]	-4.7%	2.7	21.2%
CCSc1cc(C2C(C#N)=C(N)OC(C)=C2C(=O)OC)c(C)o1 (centres undefined)	-3.2%	0.8	4.5	-31.8%[inhibitor]	1.8%	?	-22.4%
COc1ccc(NC(=O)Nc2cnccn2)c(OC)c1	-9.3%	-3.2	23.7	-10.7%	-0.5%	·	-1.2%
O=C(NC1CCN(Cc2ccccc2)CC1)C1CCCN(c2nnc(-n3cccc3)s2)C1 (centres undefined)	0.9%	-16.5	4.0	-31.9%[inhibitor]	3.9%	1.9	9.7%
Cc1onc(C(=O)N2CCN(c3ccccc3F)CC2)c1-c1ccccc1Cl	-2.6%	-8.3	-17.7	4.1%	-18.5%	-2.0	?
Cc1cc(NC(=O)c2cc(-c3ccc(OC(C)C)cc3)nc3ccccc23)no1	-2.6%	-6.2	?	15.4%[15.4 µM]	0.3%	-2.3	1.0%
CC(=O)N1c2ccc(Cl)cc2C2OCCC2C1c1ccco1 (centres undefined)	-0.8%	3.2	·	13.7%[15.4 µM]	-5.2%	-0.9	4.9%
COC(=O)c1cc(Cn2nc(C(=O)O)c3ccccc3c2=O)oc1C	·	1.2	?	?	3.6%	2.3	4.8%
O=c1c2ccc(Cl)cc2[nH]c(=S)n1Cc1cccnc1	-2.9%	18.0	-10.6	?	6.0%	3.7	-9.0%
CC(C(=O)N1CCN(C=O)CC1)N1C(=O)c2ccccc2C1=O (centres undefined)	0.1%	11.9	1.4	?	4.8%	-0.3	5.8%
Cc1cc(=O)oc2cc(NC(=O)c3cc([N+](=O)[O-])ccc3N3CCOCC3)ccc12	·	-3.7	-14.2	5.7%[15.4 µM]	-4.6%	1.7	-2.0%
C=CCNC(=O)Nc1ccc(OCC)cc1	-0.6%	1.2	-0.2	25.2%	1.7%	2.0	23.2%
O=C(c1cc(-c2ccccc2Cl)nc2ccccc12)N1CCN(c2ccccn2)CC1	-1.4%	-0.8	·	-31.6%[inhibitor]	2.2%	·	·

An unsorted share of the library. About 5.3% of those tested had a hit in this group.
